Menin-MLL FL inh = inhibitors of human menin-MLL interaction, wild-type MLL peptide. AID 1766. FP activity change, % at 61.4 µM. 290,000 tested, under 10 active. Fluorescence polarization, fluorescein-MLL peptide displacement from menin; inconclusive = falling polarisation curve, or a change in total fluorescence; inactive = total fluorescence flat and polarisation flat or rising; no compound was filed as active; the % refers to the polarisation; negative = inhibition;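 note: % of control where 0% means no effect; inhibitors lower the polarisation; unlabelled MLL peptide was the positive control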
Sfp inh = Sfp phosphopantetheinyl transferase inhibition | Potency, µM, for the others: max response, negative = inhibition, most hits filed as inhibitors | 310,000 compounds, 3.5% hits | Biochemical Sfp PPTase activity, qHTS | Q9F4F7; active = well fitted inhibition curve with a large enough effect; inconclusive = small, poorly fitted or top-dose-only effect, or another doubt; inactive = no such curve, though single readings can be large or run the other way;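 note: the enzyme is Sfp with the accession as filed and its product quenches rhodamine fluorescence; potency is the fitted concentration of half-maximal effect; 0% = enzyme reaction without inhibitor and -100% = no enzyme wells; top concentration of the series not given in the record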
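Buffer: 50 mM Hepes-Na pH 7.6, 10 mM MgCl2, 0.01% Nonidet P-40, 0.01% BSA. Enzyme 15 nM, pre-exposed to compound 15 min; substrates then added and fluorescence change tracked over 30 min.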
TRPV1 PAM = potentiators of human vanilloid receptor 1 (TRPV1); Q8NER1; TRPV1-expressing cells, Fluo-8 calcium influx, capsaicin EC20 potentiation; host cell line not named in the record; control for the full effect not named in the record; potentiation, % at 8.33 µM; 320,000 compounds, 0.02% hits; AID 540277; active means potentiation above 80%; inconclusive means 30% to 80%; inactive means below 30%; note: 0% is about no effect
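Fluo-8 calcium influx in TRPV1-expressing cells, kinetic read (ex 480/em 520 nm). Compound added and read 3 min for agonist activity, followed by capsaicin at EC20 final and 2 min further read for enhancement.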
TRPML1 blocker = inhibitors of human TRPML1 channel. TRPML1-inducible cells, Ca2+ dye fluorescence, FDSS; hits give low values; inhibition of EC80 agonist-evoked calcium signal. activity change, negative = inhibition, % (concentration not given with the values). 390,000 compounds, 0.02% hits; in the data active means activity change below about -50%; inconclusive means about -30% to -50%; inactive means above about -30%;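 note: stimulus is agonist 54-4 at its EC80 concentration; % is set by controls: 0 for no effect and ±100 for the full control effect; the text of the record puts the active cut at -80%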
Target sequence (Q9GZU1 whole entry, looked up): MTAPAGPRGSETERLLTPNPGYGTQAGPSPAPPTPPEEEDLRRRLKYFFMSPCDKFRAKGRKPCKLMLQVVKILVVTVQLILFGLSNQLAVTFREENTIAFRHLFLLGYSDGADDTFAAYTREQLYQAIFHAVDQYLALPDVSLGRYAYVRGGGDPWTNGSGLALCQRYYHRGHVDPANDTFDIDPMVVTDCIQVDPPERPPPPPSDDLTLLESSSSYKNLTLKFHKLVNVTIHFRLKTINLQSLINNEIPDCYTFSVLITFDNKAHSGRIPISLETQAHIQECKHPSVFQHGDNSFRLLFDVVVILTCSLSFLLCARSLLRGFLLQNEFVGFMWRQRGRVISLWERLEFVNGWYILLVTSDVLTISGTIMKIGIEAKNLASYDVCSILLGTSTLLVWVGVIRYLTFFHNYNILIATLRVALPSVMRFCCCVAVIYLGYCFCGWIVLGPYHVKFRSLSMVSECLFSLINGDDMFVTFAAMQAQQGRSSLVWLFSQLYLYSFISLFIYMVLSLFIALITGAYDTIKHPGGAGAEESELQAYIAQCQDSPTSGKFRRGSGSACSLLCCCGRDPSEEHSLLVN
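Tet-induced TRPML1-DL cells loaded with Ca8 no-wash calcium dye were read kinetically on FDSS. Compound addition was followed by EC80 agonist 54-4 (4 uM final); inhibition was read over 110 s.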
PINK1 expr mod = modulators of PINK1 expression. PINK1 immunofluorescence, high-content cytometry, 24 h. Potency, µM (doses to about 76.6 µM), inactives show top-dose activation (PINK1 increase), usual class: activators. 410,000 compounds, 0.2% hits. AID 624263; active = well fitted activation curve with a large enough effect; inconclusive = small, poorly fitted or top-dose-only effect; inactive = flat fitted curve, though single readings scatter; cell line not stated here;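 note: potency is the fitted concentration of half-maximal effect; % of control where 0% means no effect; nearly all actives have a fitted effect of over 65% in size; a mitochondrial uncoupler was the plate control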
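Stable cell line, 250 cells/well, 12 h attachment; compounds pinned at 5 concentrations, 24 h; CCCP control. Fixed with nuclear dye, primary antibodies 12 h at 10 degrees C, secondary plus cell stain; laser-scanning cytometer read.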
ClpP mod = qHTS Assay for Activators of ClpP | purified B. subtilis ClpP, FRET peptide cleavage, 20 min | Potency, µM (doses to about 57.5 µM), inactives show at the highest dose activity change, negative = active | 340,000 compounds, 1.9% hits | AID 651965, 2013; active = well fitted falling curve with a large enough effect; inconclusive = small, poorly fitted or top-dose-only effect; inactive = no such curve, though single readings can be large or run the other way; note: potency is the fitted concentration of half-maximal effect; the source files actives as falling curves though it sought activators and does not explain the sign; nearly all actives have a fitted effect of over 65% in size; many hits overshoot -100%
Target sequence (P80244 whole entry, looked up): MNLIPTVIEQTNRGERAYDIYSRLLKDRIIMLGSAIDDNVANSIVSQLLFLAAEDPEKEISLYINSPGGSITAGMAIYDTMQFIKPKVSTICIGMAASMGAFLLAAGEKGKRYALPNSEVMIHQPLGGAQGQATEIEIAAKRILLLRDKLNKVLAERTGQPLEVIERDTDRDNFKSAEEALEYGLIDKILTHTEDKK
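ClpP 10 microg/mL final, pH 8 Tris/KCl buffer with BSA, glycerol, Tween-20; compound pinned in; FRET-FV substrate; RT 20 min; Ex320/Em430; ΔFRET vs ADEP 5.8 microM, DMSO, no enzyme.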
TRPML1 ag = human mucolipin-1 channel agonism. AID 624414. activation, % (test concentration not listed). 410,000 compounds, 0.12% hits. TRPML1-expressing cells, Ca2+ dye fluorescence, FDSS; host cell line not named in the record; reference of the full effect not given here; in the data active = activation above about 50%; inconclusive = about 30% to 50%; inactive = below about 30%; note: 0% is about no effect; the text of the record puts the active cut at 80%
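TRPML1-DL cells, Tet-induced overnight (~16 h, 37 degrees C), loaded 45-90 min at room temperature with Ca8 no-wash calcium dye plus quencher. FDSS fluorescence: 10 s baseline, compound pin-transfer, 110 s agonist read, then EC80 54-4 (4uM final) and 110 s antagonist read.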
The depositor's hits bear a star; ? = inconclusive; . = not tested or not shown; [ ] = dose if it differs, or a comment. Rows are unselected. About 4.4% of those tested had a hit in this group.

SMILES	Menin-MLL FL inh	Sfp inh	TRPV1 PAM	TRPML1 blocker	PINK1 expr mod	ClpP mod	TRPML1 ag
Cc1ccc(CN2CCNC(=O)C2CC(=O)O)o1 (stereo not drawn)	2.1	23%	7	-7	0.9%	-7.7%	-0.2
CC(=O)c1ccc(NC(=O)CN2C(=O)NC(C)(c3ccc4c(c3)OCCO4)C2=O)cc1 (stereo not drawn)	.	.	4	-7	0.8%	-1.9%	-0.1
Cc1ccc(OCC(=O)Nc2ccc(NC(=O)c3cccs3)cc2)c(C)c1	5.8	29%	-13	-25	2.7%	.	0.4
COC(=O)c1ccc(OC)c(OC)c1Cl	-0.3	21%	20	11	3.1%	-1.3%	-0.6
O=C(O)Cc1ccc(NCc2ccccc2Cl)cc1	-1.8	-13%	-5	24	1.1%	8.9µM*	0.8
Cc1nccn1CC(=O)N/N=C/c1cccs1	3.2	2%	23	-6	-1.0%	1.4%	0.0
O=C(CSc1n[nH]c(-c2ccccn2)n1)Nc1cccc(Cl)c1	.	14%	7	-6	1.6%	-6.3%	-0.3
Cc1ccc(-c2cn3nc(-c4ccccc4)c(-c4ccccc4)nc3n2)cc1	?	-5%	-16	-1	-0.6%	.	17
COc1cccc(/C=C2\SC(=S)N(CCCC(=O)N3CCCC3)C2=O)c1	7.3	-24%	-10	13	-0.7%	0.0%	-0.2
CC1=NNC(=O)C1CCC(=O)N/N=C/c1ccccc1 (stereo not drawn)	1.5	1%	-7	3	-0.9%	0.9%	0.0
CCOC(=O)Cc1csc(NC(=O)CSc2nnc(-c3ccncc3)n2Cc2ccco2)n1	.	.	.	-10	-1.9%	-2.3%	1.0
COCCCn1c(SCC(=O)N2CCCC2=O)nc2ccccc2c1=O	.	.	.	5	-1.2%	1.1%	-0.6
CCn1cc(C(=O)NCCc2ccc(OC)cc2)c(=O)c2ccc(C)nc21	0.0	6%	7	-2	2.7%	.	-0.1
CC(C(=O)N(C)C1CCS(=O)(=O)C1)N1C(=O)/C(=C/c2ccco2)SC1=S (stereo not drawn)	?	-26%	-6	19	-0.7%	2.0%	0.5
CN(C)/C=N/n1cnc2ccccc2c1=O	-2.4	14%	-7	-8	0.6%	.	0.7

Already shown: two of the compounds above.
SMILES	Menin-MLL FL inh	Sfp inh	TRPV1 PAM	TRPML1 blocker	PINK1 expr mod	ClpP mod	TRPML1 ag
CC(=O)c1ccc(NC(=O)CN2C(=O)NC(C)(c3ccc4c(c3)OCCO4)C2=O)cc1 (stereo not drawn)	.	.	4	-7	0.8%	-1.9%	-0.1
Cc1ccc(OCC(=O)Nc2ccc(NC(=O)c3cccs3)cc2)c(C)c1	5.8	29%	-13	-25	2.7%	.	0.4

Carrying on.
SMILES	Menin-MLL FL inh	Sfp inh	TRPV1 PAM	TRPML1 blocker	PINK1 expr mod	ClpP mod	TRPML1 ag
O=C(Nc1ccc(S(=O)(=O)N2CCCCC2)cc1)c1ccc(CN2CCOCC2)cc1	3.1	7%	11	-4	0.9%[38.3 µM]	-2.1%	-0.1
CCn1c2ccccc2c2cc(NC(=O)COC(=O)c3ccc(NC(=O)CC#N)cc3)ccc21	.	.	-5	1	9.1%	-4.3%	0.2
O=C(CSCCc1ccccn1)Nc1ccccn1	1.9	-9%	-2	-7	0.0%	?	-1.2
O=C(NCc1cccc(Cl)c1)c1cnn2c1NC(c1ccco1)CC2C(F)(F)F (stereo not drawn)	7.7	8%	2	-5	?	1.8%	0.8
CC1=C(C)CC2C(=O)N(c3cccc4ccccc34)C(=O)C2C1 (stereo not drawn)	3.3	40µM*	24	6	4.1%	-0.2%	0.2
Cc1cc(C)c2c(C)nn(C3CCCCC3)c2n1	-1.4	14%	5	-5	18%[38.3 µM]	?	1.3
CN1CCN(C(c2ccc(F)cc2)c2ccc3cccnc3c2O)CC1 (stereo not drawn)	.	.	.	27	0.1%	3.1%	4.8
COc1cc(OC)c(NS(=O)(=O)c2c(C(=O)N3CCCCC3)c(C)n(C)c2C)cc1Cl	.	6%	5	-4	2.4%	1.2%	0.3
COc1ccc(-c2nn(-c3ccccc3)cc2CNC[C@H]2O[C@@H](n3cnc(C(N)=O)n3)[C@H](O)[C@@H]2O)cc1	.	.	.	0	0.6%	-6.9%	-0.2
COCCn1c(SCC(=O)NC2CC2)nc2ccccc21	.	.	-11	-3	0.8%	-13%	-0.1
COCCN(Cc1ccccc1)C(=S)Nc1ccc(Cl)cc1	0.0	10%	6	3	-0.6%	2.7%	1.4
Cc1cc(C)n(CCCNC(=O)CN(C)S(=O)(=O)c2ccc(Cl)cc2)n1	.	.	18	3	2.0%	-2.0%	-0.6
COc1ccc(-c2cc(C(=O)NCC3CCCCC3)[nH]n2)c(C)c1	.	.	.	9	2.1%	-3.3%	-0.4
Cc1cccc(NC(=O)NCc2ccccn2)c1	0.9	9%	-4	25	1.2%	-0.3%	-0.9
NC(=O)C1(N2CCCCC2)CCN(C(=S)Nc2cc(F)cc(F)c2)CC1	-0.1	6%	-8	36	0.6%	.	0.8
Cc1ccc2c(c1)C(c1ccccc1)N(C(=O)c1ccc(S(=O)(=O)N3CCCCC3)cc1)CC(=O)N2 (stereo not drawn)	.	.	.	24	-0.5%	0.0%	1.2
C/C(=N\Nc1nc2ccccc2[nH]1)c1ccc(Cl)s1	1.5	-10%	-1	8	8.0%	-0.1%	-1.0
COc1ccc(-c2cc3ccc(O)cc3oc2=O)cc1OC	-1.9	10%	13	-2	-1.5%	3.6%	7.1
CCCN1C(=O)c2[nH]nc(-c3ccc(OC)cc3)c2C1c1ccccn1 (stereo not drawn)	.	.	.	3	1.4%	-6.6%	0.6
CC(=O)Nc1ccc(S(=O)(=O)NCCC(=O)OCC(=O)c2cccc(Br)c2)cc1	.	.	4	-4	4.0%	?	-0.6
CSc1ccc(Cn2c(C)c(C(=O)NCc3ccc4c(c3)OCO4)sc2=O)cc1	.	.	.	.	0.4%	-1.7%	-0.3
CCCCN=C(C)C1=C(O)CSC1=O	0.3	9%	1	2	2.2%	-1.9%	-0.5
Nc1nc(SCC(=O)Nc2cccc(Oc3ccccc3)c2)n[nH]1	2.4	-4%	-20	-11	1.2%	-3.3%	-0.1
O=C(O)C1C2CCCCC2=C2CCCCC2C1C(=O)O (stereo not drawn)	1.2	4%	21	10	0.8%	0.1%	-0.3
Cc1c(C2=CCN(S(=O)(=O)c3ccc(Br)cc3)CC2)c2ccccc2n1C	10	-21%	10	6	-0.1%	-8.6%	-0.2
C/C(=N\NC(=O)C(=O)Nc1cc(Cl)ccc1Cl)c1ccncc1	6.1	9%	0	7	0.4%	-2.2%	-0.2
Cc1ccc(SC(C)C(=O)NCc2cccnc2)cc1 (stereo not drawn)	-0.3	25%	-5	-3	-1.1%	0.4%	5.4
O=C(Nc1cc(S(=O)(=O)N2CCOCC2)ccc1OCC(F)(F)F)C1CCCC1	.	.	.	-2	0.7%	-2.7%	-0.1
Cc1ccccc1CSc1nnc2[nH]c(=O)cc(-c3ccccc3)n12	.	.	.	7	0.6%	-25%	1.1
Cc1cc(C)cc(N(CC(=O)NCc2ccc3c(c2)OCO3)C(=O)CCC(=O)Nc2ccccn2)c1	2.0	17%	-10	3	-0.7%	-0.5%	0.8
Cc1nn(-c2ccccc2)c(C)c1/C=N/n1c(-c2ccc(C(C)(C)C)cc2)n[nH]c1=S	0.2	-17%	11	-16	5.2%	-2.5%	0.5
Cc1cc(C)c(S(=O)(=O)N2CCCOC2CNC(=O)C(=O)NCCCn2ccnc2)c(C)c1 (stereo not drawn)	0.2	7%	3	-10	-1.5%	1.5%	-0.9
COc1ccc2ccc(OCC(=O)N3c4ccccc4NC(=O)CC3C)cc2c1 (stereo not drawn)	.	.	4	?	2.7%	-1.2%	1.0
Cc1ccc(Nc2nc(Oc3ccc(=O)[nH]n3)nc(N(C)C)n2)cc1	-0.2	-15%	16	8	1.5%	-0.6%	1.6
O=C(N/N=C/c1ccccc1OCc1ccccc1Cl)c1cccnc1	0.9	-2%	-5	-10	10%	.	0.2
Cc1nn(CC(=O)NCc2ccc(Cl)cc2)c(=O)c2cc3sccc3n12	.	.	.	-12	-1.6%	-8.7%	0.7
COC(=O)c1ccsc1NS(=O)(=O)c1ccccc1	.	-1%	4	-18	1.9%	0.1%	12
COc1ccccc1CNC(=O)COC(=O)c1ccc(C)c(S(=O)(=O)N2CCOCC2)c1	.	.	4	-1	-2.3%	.	1.1
Cc1ccc(NC(=O)CSc2ncc3c(n2)-c2ccccc2N(Cc2cccc(F)c2)S3(=O)=O)cc1F	.	.	.	-14	2.9%	?	2.4
Oc1c(N=Nc2nn[nH]n2)ccc2ccccc12	.	.	.	.	4.1%	-1.6%	-0.8
CN(N=Nc1cccc([N+](=O)[O-])c1)c1cccc([N+](=O)[O-])c1	1.9	-12%	10	24	-0.2%	-0.5%	3.8
Cc1ccc(CN2CCCC(C(=O)N3CCCC3)C2)cc1 (stereo not drawn)	-6.1	-12%	-2	2	2.7%	-1.0%	-1.2
Cn1ncc(Cl)c1C(=O)Nc1nc2ccc(Cl)cc2s1	4.3	-24%	-1	10	3.9%	-4.7%	0.7
COc1ccc(NC(=O)CSc2nc3ccccc3n2CC(=O)N(C)c2ccc(F)cc2)cc1	.	.	.	-6	-1.7%	-5.6%	-0.2
CN1CCN(S(=O)(=O)c2cccc(C(=O)Oc3ccc(Br)cc3F)c2)CC1	.	-9%	-2	-19	2.1%	-2.6%	0.1
Cc1ccc(S(=O)(=O)N2CCCCC2)cc1NC(=O)C1CCCO1 (stereo not drawn)	0.3	25%	0	6	0.5%	.	-0.3
CCOc1ccc(CCNC(=O)COC(=O)Cc2c[nH]c3ccccc23)cc1OCC	.	.	-2	1	3.0%	-3.7%	-0.3
CCN(CC)S(=O)(=O)c1ccc(N2CC(C(=O)NCCC3=CCCCC3)CC2=O)cc1 (stereo not drawn)	.	.	-5	-4	6.9%	0.7%	4.5
COC(=O)[C@]1(C)N[C@H](CN(C)C(=O)Nc2ccccc2)[C@@H]2C(=O)N(C)C(=O)[C@@H]21	.	.	.	-17	-0.9%	2.4%	-1.0
COc1ccc(NC(=O)c2cc(-c3ccc(F)cc3OC)n[nH]2)cc1OC	.	.	.	.	0.8%	-0.7%	-0.7
COc1ccccc1N1CCN(C(=O)c2cc(=O)c3ccc(C)cc3o2)CC1	-1.0	-7%	-5	-11	17%	-0.3%	1.2
O=C(NN=C1C2CC3CC(C2)CC1C3)c1ccccc1O	5.5	-1%	-22	.	1.9%	3.7%	.

Source: PubChem
